KCNQ2 pot – potentiators of rat KCNQ2 potassium channel | Potassium voltage-gated channel subfamily KQT member 2 (Rattus norvegicus), O88943 | CHO-K1 KCNQ2, FluxOR thallium flux fluorescence; hits give high values | B-score at 10 µM | 0.54% of 310,000 active;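 active = fluorescence ratio B-score at least 3 SD of library B-scores, with initial fluorescence B-score within 3 SD, cut at about 5.3 in these data; same plate scores as AID 2156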;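 also: B-score of peak minus minimum over baseline fluorescence ratio after K+ and Tl+ stimulus; positive B-score means potentiation of KCNQ2 with more thallium influx and brighter signal; only the inactives scoring about 0 or higher are listed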
Target sequence (O88943 whole entry, looked up): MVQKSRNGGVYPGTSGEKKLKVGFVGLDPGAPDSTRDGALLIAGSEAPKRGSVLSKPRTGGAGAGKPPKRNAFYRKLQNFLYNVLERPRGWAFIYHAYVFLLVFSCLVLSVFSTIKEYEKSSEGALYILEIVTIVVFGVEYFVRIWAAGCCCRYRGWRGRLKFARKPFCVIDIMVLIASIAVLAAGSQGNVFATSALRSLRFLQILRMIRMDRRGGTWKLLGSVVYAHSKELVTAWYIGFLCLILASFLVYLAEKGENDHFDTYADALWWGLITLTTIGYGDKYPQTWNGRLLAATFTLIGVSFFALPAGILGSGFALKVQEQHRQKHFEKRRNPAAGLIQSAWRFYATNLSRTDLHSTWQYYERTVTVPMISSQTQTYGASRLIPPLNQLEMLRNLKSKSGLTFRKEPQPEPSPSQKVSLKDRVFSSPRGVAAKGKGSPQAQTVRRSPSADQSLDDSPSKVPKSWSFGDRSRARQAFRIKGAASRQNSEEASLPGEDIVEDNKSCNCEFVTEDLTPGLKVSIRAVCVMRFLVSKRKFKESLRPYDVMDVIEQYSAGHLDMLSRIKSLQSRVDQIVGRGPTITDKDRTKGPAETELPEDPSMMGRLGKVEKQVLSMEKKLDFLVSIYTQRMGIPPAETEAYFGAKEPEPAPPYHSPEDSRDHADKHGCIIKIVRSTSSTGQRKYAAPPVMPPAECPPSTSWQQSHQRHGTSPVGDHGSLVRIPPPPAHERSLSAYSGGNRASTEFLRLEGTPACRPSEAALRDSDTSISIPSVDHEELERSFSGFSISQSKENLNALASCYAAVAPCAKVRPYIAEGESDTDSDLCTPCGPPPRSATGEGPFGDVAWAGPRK
KCNQ2 pot baseline – second read-out of KCNQ2 pot, no call of its own (marks repeat the call); B-score; compound at 10 µM; measured here: initial fluorescence intensity artifact check;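 brightness before thallium and not channel activity; 0 = typical well and far values either way flag optical interference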
Starred values were filed as active, the others as inactive. Not all compounds are listed, so the mix of outcomes need not match the whole.

SMILES	KCNQ2 pot	KCNQ2 pot baseline
O=C(Cn1nnc(-c2ccccc2)n1)NCc1cccs1	0.94	-0.04
OCC[C@@H]1C[C@H](O)[C@@H](O)[C@@]2(CCCCO2)O1	0.96	0.19
Cc1cc(Nc2ccc(C)c(C)c2)n2nc(C)nc2n1	0.49	0.86
NC(=O)CSc1nnc(-c2cc(-c3ccc(Cl)cc3)nc3ccccc23)o1	0.79	0.5
C=CCSC(=S)NC1CCS(=O)(=O)C1 (stereo unspecified)	0.67	1.39
O=[N+]([O-])c1ccc(S(=O)(=O)N/N=C/c2cccs2)cc1	2.62	0.14
O=C(Nc1ccnn1C1CCN(Cc2cc(Cl)ccc2O)CC1)C1CC1	0.03	-1.62
COc1ccc2c(c1)[nH]c1c(=O)n(CCN3CCCC3)cnc12	0.22	-0.9
COc1ccc(CN2CCN(C3CCSCC3)CC2CCO)c(C)c1C (stereo unspecified)	0.15	1.16
Cc1ccc(C2=NS(=O)(=O)N(C)C(C(=O)NC(C)c3ccccc3)=C2)cc1 (stereo unspecified)	2.74	-2.27
N#Cc1ccsc1NC(=O)CN1CCN(S(=O)(=O)c2cc(Cl)ccc2Cl)CC1	0.28	-0.58
CCOCCCNC(=O)CS(=O)(=O)Cc1nc(-c2cccc(OC)c2)oc1C	1.38	0.67
COc1ccc(/C=C/c2noc(-c3ccccc3OC(C)=O)n2)cc1	0.22	-0.21
CCCCc1ccc(-c2ccc(C)cc2O)nc1	3.26	-0.52
Cc1cc(N2CCCCC2)nc(NCc2ccccc2)n1	1.24	0.12
O=C(Nc1ccccc1Oc1ccccc1)C1CCCC1	2.26	0.34
O=C1C=C(N2CCOCC2)CCC1	1.84	-0.97
O=C(N/N=C/c1cccnc1)NC12CC3CC(CC(C3)C1)C2	0.05	-1.8
COc1ccc(OC)c(NC(=O)CNC(=O)Cn2c(C)cc3ccccc3c2=O)c1	0.13	0.36
CCCCn1c(N)c(N(CC)C(=O)c2cccc(C)c2)c(=O)[nH]c1=O	1.02	-0.6
CCOC(=O)C1=C(C)NC(=O)C(C(N)=O)C1c1ccccc1 (stereo unspecified)	1.96	-0.36
S=c1[nH]nc(-c2cc3c(s2)-c2ccccc2CC3)o1	16.2*	-1.2*
O=C(/C=C/Nc1ccc(S(=O)(=O)Nc2cnc3ccccc3n2)cc1)c1ccccc1	0.31	1.48
CC(C)CN(C(=O)CN1CCC(C)CC1)c1c(N)n(CC(C)C)c(=O)[nH]c1=O	0.56	-0.15
COc1ccc2nc(Nc3nc(C)c(CCC(C)C)c(=O)[nH]3)nc(C)c2c1	2.7	-3.05
CCNC(=O)N1c2ccccc2Sc2ccccc21	0.01	2.01
COc1ccc(OC)c(NC(=O)CCN2CCCCCC2)c1	0.31	2.36
O=C(NCc1ccc2c(c1)OCO2)C1CCCN1C(=O)Nc1cccc(Cl)c1 (stereo unspecified)	1.17	-0.29
CC1CCN(C(=O)CSc2nc3cccnc3n2C)CC1	1.01	-0.14
O=S(=O)(c1ccc2nc(-c3ccccc3)[nH]c2c1)N1CCN(c2ccc(Cl)cc2)CC1	0.93	-0.88
C=CCc1ccccc1OCCNCCCOC	0.55	2.4
CCOCCCNC(=O)NC(=O)CN1CCN(S(=O)(=O)c2ccc3c(c2)OCCO3)CC1	0.31	0.22
CCc1nc(NCc2ccccn2)c2oc3ccccc3c2n1	1.61	-2.34
O=c1cc(-c2ccccc2)nc(/C=C/c2ccccc2)[nH]1	0.1	0.49
CC(C)[C@H](NC(=O)C1CCN(S(=O)(=O)c2ccc(F)cc2)CC1)C(=O)NCc1ccncc1	0.07	0.35
Cc1nn2c3ccccc3n(CCN3CCCCC3)c2nc1=O	0.73	0.23
N#Cc1nc(COc2ccccc2)oc1NCCN1CCOCC1	1.81	-0.76
CN1CCC(OC(=O)c2ccccc2)CC1	0.61	-1.11
Cc1ccc(S(=O)(=O)NCC(=O)OCc2nnc(-c3ccccc3)o2)cc1	0.73	-1.3
O=C(CN1CCOCC1)N1CCN(c2ccc([N+](=O)[O-])cc2)CC1	0.44	-2.35

The list goes on, overlapping the part above by 3 compounds.
SMILES	KCNQ2 pot	KCNQ2 pot baseline
CN1CCC(OC(=O)c2ccccc2)CC1	0.61	-1.11
Cc1ccc(S(=O)(=O)NCC(=O)OCc2nnc(-c3ccccc3)o2)cc1	0.73	-1.3
O=C(CN1CCOCC1)N1CCN(c2ccc([N+](=O)[O-])cc2)CC1	0.44	-2.35
CCOC(=O)c1ccc2c(c1)N(CC(=O)N1CCCC1)C(=O)C(C)(C)O2	0.89	-0.06
O=S1(=O)CCN2C(c3ccc4c(c3)CCCC4)=CSC2=N1	0.19	2.52
CNC(=S)N(Cc1cc2cc(C)cc(C)c2[nH]c1=O)C1CCCC1	2.2	-1.16
COC(=O)c1cc(Cl)c(N)cc1OC	0.17	-2.91
S=C(Nc1ccc(Cl)cc1)N(CCCN1CCOCC1)Cc1cccs1	0.02	0.19
Cc1ccc(S(=O)(=O)Nc2cc(C(F)(F)F)ccc2N2CCOCC2)c(C)c1	0.13	0.38
CCO[C@@H]1OC(C(=O)NCc2ccccc2)=C[C@H](C(C)(C)C)[C@H]1CCCO	0.67	0.99
COCCSc1nc2c(c(=O)[nH]c(=O)n2C)n1Cc1cccc(C)c1	1.66	-1.59
Cc1cccc(NC(=O)CS(=O)(=O)c2cn(CC(=O)N3CCOCC3)c3ccccc23)c1	0.89	0.66
N#CC(C(=O)NC1CCCCC1)=C1CCCCCC1	0.11	0.19
Cc1cc(S(=O)(=O)NCc2ccccc2)ccc1OCC(=O)NCC1CCCO1 (stereo unspecified)	0.35	0.42
COC(=O)c1c(C)[nH]c(O)c1C=Nc1ccc(C#N)cc1	2.19	-0.64
CCN1CCN(C(=O)C(=O)c2cn(CC(=O)N(CC)CC)c3ccccc23)CC1	0.14	-1.99
CCCc1nnc(SCC(=O)N2CCOCC2)n1Cc1ccco1	0.5	0.01
CCOC(=O)C(C)n1ncn2cccc2c1=O (stereo unspecified)	0.52	0.11
COCCn1cnnc1SCC(=O)Nc1cccc(S(=O)(=O)N2CCCCCC2)c1	1.31	-0.42
Cc1ccc(C(=O)C[n+]2ccc(Cc3ccccc3)cc2)cc1	0.57	0.06
O=C(CN1C(=O)CC(c2ccco2)Sc2ccccc21)NCC1CCCO1 (stereo unspecified)	0.24	1.84
CC(C)CCN1C(=O)c2ccc(C(=O)NCc3ccccn3)cc2C1=O	1.07	2.33
COc1cccc(CN(C)C(=O)CSc2nc3ccccc3[nH]2)c1OC	0.62	-0.2
CCCc1cnc(N2CCN(C(=O)c3ccccc3)CC2)nc1	0.91	0.88
COc1ccc(/C=C/C(=O)N[C@H](C(=O)O)C(C)C)cc1	0.91	-0.04
CC(NC(=O)Nc1ccccc1Cl)c1ccc2c(c1)OCO2 (stereo unspecified)	3.94	0.01
C=CCc1cccc2cc(C(=O)O)c(=O)oc12	0.59	-1.06
Cc1nn(Cc2nnc(SCC(=O)Nc3cccc(C(F)(F)F)c3)n2C)c(C)c1[N+](=O)[O-]	1.77	-0.32
O=C(Nc1ccccc1F)c1ccc(Br)o1	0.5	-0.18
CC(=O)N1CCN(C(=O)c2ccc(Oc3ccccc3)cc2)CC1	0.67	-0.74
Cc1cc(Cl)ccc1OCC(=O)NCCCN1CCOCC1	1.2	-1.65
CCOC(=O)C1=C(CN2CCSCC2)NC(=O)NC1c1cccc([N+](=O)[O-])c1 (stereo unspecified)	0.15	-0.53
CCc1ccccc1NC(=O)CN1CCC(NC(=O)COC)CC1	0.42	-0.13
CC(NC(=O)c1ccc(F)cc1)c1ccc(F)cc1 (stereo unspecified)	1.35	-0.46
O=C(NCCC1CCCCN1S(=O)(=O)c1ccccc1)C(=O)Nc1ccccc1F (stereo unspecified)	1.22	-0.51
CC1CCC2(CC1)NC(=O)N(Cc1cccc(C(F)(F)F)c1)C2=O (stereo unspecified)	1.71	-1.11
COCCn1c(SC(C)C(=O)Nc2ccc(Cl)cn2)nnc1-c1ccncc1 (stereo unspecified)	1.13	-0.21
COc1cccc(NCc2cc3c(C(C)(C)C)nn(-c4ccccc4)c3[nH]c2=O)c1	0.86	-0.63
COc1ccc(NC(=O)c2ccc(N(C)S(C)(=O)=O)cc2)cc1OC	0.56	-0.18
CCc1ccc(Nc2nnc(SCC(=O)N(C)C3CCS(=O)(=O)C3)s2)cc1 (stereo unspecified)	0.09	-1.43
O=C(Nc1nccs1)c1ccc(Cl)s1	1.17	0.22
CCC(C)NC(=O)c1cc(S(=O)(=O)N2CCCCC2)c[nH]1 (stereo unspecified)	1.78	0.31
S=C(NCc1ccccc1)NC1CCSc2ccccc21 (stereo unspecified)	0.04	1.58

Shown with values under each structure: 4 of the compounds above.
Every second line gives: KCNQ2 pot | KCNQ2 pot baseline
- C=CCc1ccccc1OCCNCCCOC
  0.55 | 2.4
- CCOCCCNC(=O)NC(=O)CN1CCN(S(=O)(=O)c2ccc3c(c2)OCCO3)CC1
  0.31 | 0.22
- CCc1nc(NCc2ccccn2)c2oc3ccccc3c2n1
  1.61 | -2.34
- O=c1cc(-c2ccccc2)nc(/C=C/c2ccccc2)[nH]1
  0.1 | 0.49

Next part
SMILES	KCNQ2 pot	KCNQ2 pot baseline
Brc1cccc(Nc2nc(-c3cccnc3)cs2)c1	0.49	0.59
CC(NC(=O)C(=O)NN=C1CCCCCC1)c1ccccc1 (stereo unspecified)	0.52	0.07
COc1ccc(/C=C/C(=O)NCC(=O)N/N=C/c2cccs2)cc1	0.45	-2.04
CSc1cccc(NC(=O)C(C)C)c1	0.35	0.78
Cn1c(N)c(C(=O)COC(=O)CN2C(=O)c3ccccc3C2=O)c(=O)n(C)c1=O	0.28	0.42
CCOC(=O)C1=C(O)C(=O)N(Cc2cccnc2)C1c1ccc(OC)cc1 (stereo unspecified)	1.67	-2.45
O=C(/C=C/c1ccco1)Nc1scc(-c2ccccc2)c1C(=O)O	0.14	1.98
CCOc1ccc(N=C2NC(=O)S/C2=C\c2ccc(N(C)C)cc2)cc1	0.46	5.3
COc1ccc(/C(C)=N\NC(=O)C(c2ccncc2)N2CCOCC2)cc1 (stereo unspecified)	0.35	-0.68
Cc1c(NC(=O)C2(c3ccccc3)CCOCC2)c(=O)n(-c2ccccc2)n1C	0.78	0.16
C/C(=N/NC(=O)c1ccc(C(C)(C)C)cc1)c1ccccn1	2.01	1.92
Cc1ccc2nc(Nc3ccccc3O)nc(-c3ccccc3)c2c1	0.59	0.08
COc1ccccc1/C=N/NC(=O)c1ccccc1Cl	1.75	0.29
O=C(Nc1nccs1)c1ccc(COc2c(F)c(F)cc(F)c2F)cc1	0.15	-1.99
O=C(O)CSc1nnc(CNc2cccc(C(F)(F)F)c2)n1Cc1ccco1	0.08	-1.82
O=C(/C=C/c1ccccc1)NC(=S)Nc1ccccc1O	1.21	-0.69
COc1cccc(CN(CC(=O)NCc2ccco2)C(=O)CNS(=O)(=O)c2ccccc2)c1	0.96	-0.65
O=C1CC(c2ccccc2)n2nc(NC(=O)c3ccccn3)nc2N1 (stereo unspecified)	0.24	-0.25
CCCCN(CCCC)S(=O)(=O)c1ccc(OC)c2ncccc12	0.08	3.28
N#CC1=C(Nc2ccccc2)SC=C(c2ccc(Cl)c(Cl)c2)N=C1N1CCOCC1	0.55	-0.07

Quoted at random: two records from the list, in no set order.
SMILES	KCNQ2 pot	KCNQ2 pot baseline
Cc1ccc(C2=NS(=O)(=O)N(C)C(C(=O)NC(C)c3ccccc3)=C2)cc1 (stereo unspecified)	2.74	-2.27
CCCCN(CCCC)S(=O)(=O)c1ccc(OC)c2ncccc12	0.08	3.28

The listing continues.
SMILES	KCNQ2 pot	KCNQ2 pot baseline
COc1ccc(NC(=O)Nc2ccc(F)cc2F)cc1	0.71	0.66
COc1ccccc1Oc1ccc(N/C=C2/CCCC2=O)cc1	0.04	-1.45
OCCN1CNC(=S)NC1	0.19	1.17
CC(C(=O)N1CCCC1)c1ccc([N+](=O)[O-])cc1 (stereo unspecified)	1.76	-0.05
COc1ccc(S(=O)(=O)Nc2ccccc2OC)cc1NC(=O)Cc1cccs1	1.1	0.07
COc1cc(SC)ccc1C(=O)N1CCN(c2ccccc2)CC1	0.42	0
Cc1ccc(CN(C)CC(=O)Nc2ccc3c(c2)CCC3)cc1	3.05	2.45
O=C(Nc1ccccn1)NC12CC3CC(CC(C3)C1)C2	0.45	1.7
O=C(CCN1CCCCC1=O)NC1CCCc2c1cnn2-c1ccccc1F (stereo unspecified)	0.95	-0.48
Cn1c(=O)c2c(SCc3cccc(C(F)(F)F)c3)nc(-c3ccco3)nc2n(C)c1=O	1.07	0.5
CC1=CC=CN2C1=NC(=O)CC2(C)C(=O)N(CC(=O)NC1CCCC1)Cc1ccccc1 (stereo unspecified)	0.78	0.01
O=C(CSc1nc2ccccc2c(=O)[nH]1)Nc1ccc(Br)cc1	0.88	0.77
O=C(N/N=C1\CCSc2ccc(F)cc21)c1cccnc1	0.36	0.01
CC(C)C(=O)NC(NC(=S)Nc1cccc2cccnc12)C(Cl)(Cl)Cl (stereo unspecified)	0.26	-0.38
Nc1ncc(Br)cc1S(=O)(=O)NCCC(=O)N1CCN(c2ccccc2)CC1	1.61	0.58
CC1(C)Cc2c(sc3ncnc(NN)c23)CO1	1.03	-0.6
COC(=O)CSc1nnc(CNS(=O)(=O)c2ccc(Br)cc2)n1C	1.8	-0.77
CCOC(=O)C1=C(O)C(=O)N(c2ccc(S(N)(=O)=O)cc2)C1c1ccc(OC)cc1 (stereo unspecified)	0.15	0.23
CCOc1ccc(C(=O)NCCN2CCCCC2)c(OCC)c1	0.72	-1.17

Record cards (already shown). Screens in order: KCNQ2 pot | KCNQ2 pot baseline
Listed for `O=C(Nc1ccccn1)NC12CC3CC(CC(C3)C1)C2` : 0.45 | 1.7
Listed for `O=C(N/N=C1\CCSc2ccc(F)cc21)c1cccnc1` : 0.36 | 0.01
